Calb FLC: C. albicans growth inhibition with fluconazole, primary screen, CaCi-2 strain, Alamar Blue fluorescence; C. albicans CaCi-2 (fluconazole-resistant clinical isolate) + fluconazole, 48 h; growth inhibition, % (test concentration not listed); 0.57% of 300,000 active;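 active = most replicates above 75%; inconclusive = exactly half above 75%; inactive = most below 75%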;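 also: all wells also contain fluconazole at 8 µg/ml as a sub-toxic cotreatment; 0% = median of DMSO wells and 100% = median of geldanamycin control wells; wells of about 8 µL received 7.5 nL stock; the first replicate is given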
B2AR ag: beta2AR agonists driving receptor internalization, primary screen, cell-based, FAP fluorogen, flow cytometry; response, % (no concentration beside the values); Beta-2 adrenergic receptor (Homo sapiens), P07550; 0.43% of 340,000 active; Am2.2-beta2AR cells; reference of the scale not given here;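 active = response above a set limit, near 3 SD of response in nonfluorescent compounds, cut at about 42% in these data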;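 also: stock transfer was 100 nL into about 11 µL; a reference agonist was the positive control; negative values mostly stem from fluorescent compounds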
Target sequence (P07550 whole entry, looked up): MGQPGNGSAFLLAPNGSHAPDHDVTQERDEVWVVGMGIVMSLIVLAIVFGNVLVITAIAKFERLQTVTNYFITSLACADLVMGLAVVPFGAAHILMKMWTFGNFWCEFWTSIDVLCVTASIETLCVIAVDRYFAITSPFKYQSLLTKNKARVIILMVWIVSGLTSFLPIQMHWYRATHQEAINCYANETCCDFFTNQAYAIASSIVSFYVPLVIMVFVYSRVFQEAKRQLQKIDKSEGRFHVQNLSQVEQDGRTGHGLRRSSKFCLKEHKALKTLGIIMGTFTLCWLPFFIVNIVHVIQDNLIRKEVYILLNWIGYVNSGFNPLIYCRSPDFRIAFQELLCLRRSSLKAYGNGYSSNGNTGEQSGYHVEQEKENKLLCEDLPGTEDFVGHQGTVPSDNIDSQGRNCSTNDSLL
RanGTP-Imp inh: inhibitors of RanGTP-importin-beta interaction, primary screen, biochemical, FRET, CFP-Ran, YFP-importin-beta, homogeneous. Ran GTPase (GTP-bound) - importin-beta complex. cell-free CFP-Ran/YFP-importin-beta FRET ratio. inhibition, % (test concentration not listed). 1.1% of 300,000 active. AID 2216, 2009;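 active = most replicates above 15%; inconclusive = exactly half above 15%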;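 also: 0% = DMSO wells and 100% = Ran loaded with GDP instead of GTP; wells of about 40 µL received 100 nL stock; the first replicate is given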
Vif TR-FRET: inhibitors of Vif binding to APOBEC3G peptide, primary screen, biochemical, TR-FRET, GST-Vif 1-94, biotin-A3G peptide, dose response retest (AID 1117319) | TR-FRET GST-Vif / biotin-A3G peptide binding; higher % means a stronger effect; test concentration not given here; strong numbers were not always called active | one-dose inhibition, %; IC50 in µM for titrated hits | 0.57% of 260,000 active;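 active = above the screen mean plus three standard deviations and confirmed in dose response; inconclusive = results disagree or hit not tested in dose response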;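 also: Vif residues 1-94 fused to GST binding biotinylated APOBEC3G peptide 110-148; 0% = full assay without inhibitor and 100% = GST in place of GST-Vif; retest series ran down from 100 µM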
ALR H2O2 inh: inhibitors of human ALR sulfhydryl oxidase, primary screen, biochemical, H2O2 detection, HRP-luminol luminescence, single point. FAD-linked sulfhydryl oxidase ALR (Homo sapiens), P55789. purified ALR, DTT oxidation. inhibition, % (concentration not given with the values). 3.8% of 290,000 active. AID 485317, 2010;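 active = mean and each replicate at 75% or more; inconclusive = only one of the two met; inactive = neither met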;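 also: stock transfer was 7.5 nL into about 7.5 µL; 0% = neutral wells and 100% = wells with inactivated enzyme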
Target sequence (P55789 whole entry, looked up): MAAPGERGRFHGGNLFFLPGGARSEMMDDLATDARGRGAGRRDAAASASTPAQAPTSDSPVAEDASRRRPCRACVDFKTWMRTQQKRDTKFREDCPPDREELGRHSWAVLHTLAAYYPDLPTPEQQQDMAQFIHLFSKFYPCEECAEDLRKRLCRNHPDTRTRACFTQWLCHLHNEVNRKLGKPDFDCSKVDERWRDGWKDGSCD
HNF4A DNA FP: change in binding of human HNF4A to DNA, primary screen, biochemical, fluorescence polarization, FITC-DNA. Hepatocyte nuclear factor 4-alpha (Homo sapiens), P41235. 1 h. activity change, % at 10 µM. 0.3% of 360,000 active. AID 1224865, 2016; in the data active = activity change above about 30%, passing the limit was not always enough;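 also: controls were the assay level and a saturating level of protein; the project sought stronger binding though the title names inhibitors; some compounds called inactive have numbers as strong as hits; positive values seem to mean higher polarization but the record does not say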
Target sequence (P41235 whole entry, looked up): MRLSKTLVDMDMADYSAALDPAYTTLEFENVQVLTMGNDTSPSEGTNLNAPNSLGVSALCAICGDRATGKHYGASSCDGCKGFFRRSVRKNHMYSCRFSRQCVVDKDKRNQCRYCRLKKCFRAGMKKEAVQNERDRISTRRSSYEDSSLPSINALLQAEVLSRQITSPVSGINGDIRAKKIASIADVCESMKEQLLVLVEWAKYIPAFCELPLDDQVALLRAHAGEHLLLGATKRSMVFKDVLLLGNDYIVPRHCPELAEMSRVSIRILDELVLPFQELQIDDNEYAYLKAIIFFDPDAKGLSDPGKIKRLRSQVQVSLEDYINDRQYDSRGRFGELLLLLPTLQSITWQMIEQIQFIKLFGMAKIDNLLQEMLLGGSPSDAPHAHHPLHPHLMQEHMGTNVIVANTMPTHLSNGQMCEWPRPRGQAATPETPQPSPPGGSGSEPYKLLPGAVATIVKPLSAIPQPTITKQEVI
LANA-H2B inh: blockers of LANA interaction with H2A/H2B – biochemical, FP readout, HTS, primary screen; 0.6% of 320,000 active; inhibition, % (no concentration beside the values); Protein LANA1 (Human herpesvirus 8 type P (isolate GK18)), Q9QR71; cell-free LANA-H2A/H2B peptide, fluorescence polarization; in the data active = inhibition mostly above about 10%, no sharp cut-off; inactive = mostly below about 6.7%;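 also: stock transfer was 7.5 nL into about 10 µL; 0% = median of vehicle wells and 100% = median of positive control wells; one replicate is shown; the record names a cut of 25% in any replicate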
* = called active by the depositor; ? = inconclusive; nt = not tested or not shown. Hits appear at their usual frequency; 6.3% or so of the library scored in one or more.

SMILES	Calb FLC	B2AR ag	RanGTP-Imp inh	Vif TR-FRET	ALR H2O2 inh	HNF4A DNA FP	LANA-H2B inh
Cc1cccc2cc(CN(Cc3cccnc3)C(=S)NCCCN(C)C)c(=O)[nH]c12	-26	-3	-0.3	18%	3	-2.8	1.6
COc1ccc(-c2cc3nc(C)n(N)c(=O)c3s2)cc1	-11	-1	3.3	-20%	-2	6.3	3.8
O=C(CCNC(=O)c1ccc(Br)cc1)NCc1cccnc1	4	-8	9.2	nt	8	-2.8	22*
Cc1noc(C)c1COc1ccccc1C(=O)N(C)Cc1ccco1	nt	-6	nt	-4%	-1	4.2	2.2
COc1ccc(NC(=O)CN(C)S(=O)(=O)c2ccc3c(c2)CCCN3C(C)=O)cc1	?	-5	-4.4	3%	-6	1.6	0.9
CC(C)c1nnc(NC(=O)CCC(=O)NC2CCCc3ccccc32)s1 (stereo not given)	10	-6	?	25%	-8	-0.7	1.2
O=C(c1ccc(Oc2cc(Cl)cc(Cl)c2)o1)N1CCCCC1	-9	3	-0.1	nt	-5	0.7	5.5
CC(O)CNCCNCc1c(OCc2ccccc2)ccc2ccccc12 (stereo not given)	-26	35	-1.2	8%	-14	-5.2	0.7
O=c1[nH]c2cc(Cl)cc(Cl)c2[nH]c1=O	-8	-4	-1.3	29%	-7	-2.2	3.0
Cc1ccc(-c2cn(S(=O)(=O)c3ccc(C)cc3)nc2N)cc1	-20	0	5.8	1%	nt	-0.2	nt
Cc1nnc(SC(C)C(=O)Nc2ccc(S(=O)(=O)NC3CCCCC3)cc2)s1 (stereo not given)	-4	-6	?	2%	-8	-2.1	-0.8
Cc1cc(C)c(C#N)c(Oc2ccc(O)cc2)n1	-5	-19	3.2	0%	?	0.6	-1.2
C=CCn1c(=NC(=O)c2cccs2)sc2cccc(OC)c21	19	-6	-1.3	1%	-2	1.9	-0.6
O=C(NCC1CC1)C1CCCN(S(=O)(=O)c2ccc(-n3cnnn3)cc2)C1 (stereo not given)	-3	38	1.6	-5%	-7	2.3	0.0
COc1ccc(C2NN=C(c3ccc(C)cc3)S2)cc1OC (stereo not given)	-20	1	3.1	nt	-13	1.3	0.3
COc1ccccc1NC(=O)c1ccccc1SC	3	1	1.5	0%	-4	1.0	1.0
Cc1ncc(C[n+]2csc(C)c2C)c(N)n1	-2	8	2.8	0%	-4	0.7	4.2
COc1cc(/C=N/n2cc(-c3ccccc3)[nH]c2=S)cc(OC)c1O	15	-4	1.9	?	nt	-0.2	-1.7
N#Cc1ccc(-c2csc(NNC(=O)c3ccc(Br)cc3)n2)cc1	9	5	-3.5	-7%	2	-5.3	-0.4
O=C(c1ccc2[nH]c(=O)c(=O)[nH]c2c1)N1CCN(Cc2ccccc2)CC1	1	-3	0.0	nt	-29	3.0	-4.2
Cc1cc(=O)[nH]c(SCC(=O)Nc2ccc(S(=O)(=O)N3CCOCC3)cc2)n1	1	6	-0.5	-5%	nt	-2.2	0.8
COc1ccc(C2CC(c3ccccc3)=NN2C(=O)COC(=O)c2nc3nc(C)cc(C)n3n2)cc1 (stereo not given)	-6	-6	0.8	4%	3	-0.8	-5.3
COc1ccc(OCc2nnc(SCC(=O)N3CCCC3)o2)cc1	5	8	?	nt	1	-2.6	0.7
CCOC(=O)Cc1csc(NC(=O)COc2c(C)cccc2C)n1	-23	5	1.3	5%	-16	0.4	5.9
COc1ccc(C(=O)Nc2cc(C)ccc2NC(=O)COc2ccccc2)cc1	-3	-2	-3.8	12%	-1	0.5	0.7
CC(C)c1ccc(NC2CCCN(C(=O)c3ccnc(Cl)c3)C2)cc1 (stereo not given)	-3	-2	-2.8	nt	54	-3.8	2.5
Cc1cc(Nc2cccc(Cl)c2)nc(-c2ccccc2O)n1	-4	1	0.3	-12%	-2	-2.0	-6.0
CCCOc1ccccc1C1CC(=O)Nc2cc3c(cc21)OCCO3 (stereo not given)	-1	18	0.0	15%	nt	0.2	0.8
O=C(NCCc1ccccc1)C1CC(c2ccccc2O)=NO1 (stereo not given)	6	-17	?	-6%	1	1.0	0.1
CCCSc1ccc([C@H]2N[C@@](Cc3ccccc3)(C(=O)OC)[C@H]3C(=O)N(CC)C(=O)[C@@H]23)cc1	-8	1	-13	nt	1	-0.3	11
CN(C)S(=O)(=O)c1ccc(NC(=O)CNc2cc(S(=O)(=O)N3CCCC3)ccc2OCC(F)(F)F)cc1	-38	-17	-0.3	?	-3	-2.9	-2.5
CCN(Cc1ccncc1)C(=O)c1cc(COc2ccc(F)cc2F)on1	-16	0	-1.0	0%	-2	-1.0	nt
Cc1ccc(-c2nn(C(C)(C)C)c3ncnc(N)c23)cc1	nt	-6	nt	-1%	nt	0.5	0.6
CN1CCC(OC(=O)c2ccccc2Cl)CC1	-13	-1	-1.2	12%	-7	0.5	2.3
COc1ccc(CCNC(=S)NC(=O)/C=C/c2ccc(C)cc2)cc1OC	-13	11	-2.8	nt	-3	-1.3	-19
CCOc1ccc2nc(NC(=O)c3cnccn3)sc2c1	0	-7	2.0	?	-4	-0.4	-0.1
COc1ccccc1-c1cc(C(=O)N/N=C/c2ccoc2)c2ccccc2n1	-3	-2	-0.9	-13%	14	-1.4	0.9
CCCN(C(=O)CSCC(=O)Nc1ccc(OC)cc1)c1c(N)n(Cc2ccccc2)c(=O)[nH]c1=O	-7	0	-1.5	3%	-3	-0.4	-3.2
CCCC(=O)Nc1nnc(SCC(=O)NCc2ccco2)s1	7	6	-2.8	11%	nt	-1.8	nt
CC(C)c1ccc(NC(=S)N2CCCC(c3ccc(F)cc3)=N2)cc1	-6	-4	-1.7	0%	-17	2.0	-0.7
Clc1ccc(OCCn2ccnc2)c(Cl)c1	0	-6	3.0	-2%	3	2.4	0.8
CCCOc1ccc(-c2csc(NC(=O)CN3C(=O)CCC3=O)n2)cc1	0	-110	-0.4	30%	1	1.5	3.9
CC1=C(C#N)C(NC(=O)c2ccccc2Cl)(C(F)(F)F)C(=O)N1 (stereo not given)	-3	5	5.2	nt	-1	2.4	3.5
COc1cc(C)ccc1OCC(=O)OCC(=O)c1[nH]c(C)c(C(C)=O)c1C	nt	2	nt	-17%	11	2.3	1.5
Cc1ccc(NCc2nnc(SCC(=O)NNC(=O)Cc3ccccc3)n2C)cc1	-6	0	0.3	0%	4	1.6	1.5

Grouped by structure, the entries above with two or more sulfur atoms
SMILES	Calb FLC	B2AR ag	RanGTP-Imp inh	Vif TR-FRET	ALR H2O2 inh	HNF4A DNA FP	LANA-H2B inh
Cc1nnc(SC(C)C(=O)Nc2ccc(S(=O)(=O)NC3CCCCC3)cc2)s1 (stereo not given)	-4	-6	?	2%	-8	-2.1	-0.8
C=CCn1c(=NC(=O)c2cccs2)sc2cccc(OC)c21	19	-6	-1.3	1%	-2	1.9	-0.6
Cc1cc(=O)[nH]c(SCC(=O)Nc2ccc(S(=O)(=O)N3CCOCC3)cc2)n1	1	6	-0.5	-5%	nt	-2.2	0.8
CN(C)S(=O)(=O)c1ccc(NC(=O)CNc2cc(S(=O)(=O)N3CCCC3)ccc2OCC(F)(F)F)cc1	-38	-17	-0.3	?	-3	-2.9	-2.5
CCCC(=O)Nc1nnc(SCC(=O)NCc2ccco2)s1	7	6	-2.8	11%	nt	-1.8	nt

Later entries
SMILES	Calb FLC	B2AR ag	RanGTP-Imp inh	Vif TR-FRET	ALR H2O2 inh	HNF4A DNA FP	LANA-H2B inh
CCc1ccc2c(CN3CCc4ccccc43)cc(=O)oc2c1	5	4	-0.1	-9%	-2	3.6	-0.7
CCOC(=O)c1sc(C)c(C(=O)NCC(C)(C)CN(C)C)c1N	-5	0	-1.2	-7%	0	0.0	3.9
Cc1ccc(C2C(N)C(=O)N2c2ccc(C)cc2)cc1 (stereo not given)	-6	1	7.1	-8%	-1	4.8	-4.5
CCOc1cccc(CNCCSc2nnnn2C)c1	-11	-2	-2.0	10%	nt	5.4	3.2
COc1ccc(S(=O)(=O)N2CCCCC2)cc1C(=O)Nc1cc(C)on1	-5	11	1.0	nt	0	1.4	-1.2
COc1ccc2cnn(-c3ccc(OC(F)(F)F)cc3)c(=O)c2c1OC	-4	1	7.8	nt	-14	1.5	-0.6
COc1ccc(N=Nc2c(C)[nH]c3ccccc23)cc1	-13	-11	3.6	nt	54	2.6	-4.4
COC(=O)CCC(=O)NNC(=O)c1ccc([N+](=O)[O-])cc1	-13	-1	0.2	1%	-15	-1.3	0.1
CCc1nnc(NC(=O)C2=CCN(S(=O)(=O)c3ccccc3)CC2)s1	-2	-4	1.6	nt	-9	2.0	2.2
Cn1c(=O)c(=O)n(C)c2cc(S(=O)(=O)CCC(=O)N3CCOCC3)ccc21	2	-3	-5.2	6%	-14	2.3	-5.8
O=C1OC(N2CCN(C(=O)C3CCCO3)CC2)c2ccccc21 (stereo not given)	19	0	-2.3	5%	-2	1.5	0.7
CCOc1ccccc1N1CC(C(=O)NNC(=O)c2cc(OC)c(OC)c(OC)c2)CC1=O (stereo not given)	nt	-3	nt	nt	0	0.7	-4.1
O=C(CCN1C(=O)c2ccccc2C1=O)C1=NN[C@@H]2C(=O)N(c3cccc(F)c3)C(=O)[C@H]12	0	-3	-3.2	nt	13	-0.3	1.2
CCOC(=O)c1ccc(NC(=O)NCCc2ccccc2OC)cc1	28	0	0.4	-1%	1	-2.6	-2.5
CCCC(=O)Oc1cccc(C2NC(=O)c3ccccc3O2)c1 (stereo not given)	2	0	-2.1	nt	nt	-0.2	2.8

2 entries from above, as a markdown table.
| molecule | Calb FLC | B2AR ag | RanGTP-Imp inh | Vif TR-FRET | ALR H2O2 inh | HNF4A DNA FP | LANA-H2B inh |
| --- | --- | --- | --- | --- | --- | --- | --- |
| CCOC(=O)c1sc(C)c(C(=O)NCC(C)(C)CN(C)C)c1N | -5 | 0 | -1.2 | -7% | 0 | 0.0 | 3.9 |
| Cc1ccc(C2C(N)C(=O)N2c2ccc(C)cc2)cc1 (stereo not given) | -6 | 1 | 7.1 | -8% | -1 | 4.8 | -4.5 |

Carrying on.
SMILES	Calb FLC	B2AR ag	RanGTP-Imp inh	Vif TR-FRET	ALR H2O2 inh	HNF4A DNA FP	LANA-H2B inh
Cc1nnc(NC(=O)C2C3C=CC(O3)C2C(=O)O)s1 (stereo not given)	?	nt	6.9	27%	20	nt	-2.1
CC1CCc2sc(-c3n[nH]c(=S)o3)cc2C1 (stereo not given)	40	8	2.9	-1%	98*	1.9	-2.5
CCCCOC(=O)Nc1nnc(/C=C/c2ccc(OC)cc2)s1	9	3	1.8	3%	-4	-1.7	0.6
CC(C)NC(=O)N(C)C[C@@H]1Oc2c(NC(=O)C3CCOCC3)cccc2C(=O)N([C@@H](C)CO)C[C@H]1C	nt	-2	nt	-6%	-5	4.6	nt
CN1CCCC1CCNC1C2CC3CC(C2)CC1C3 (stereo not given)	30	0	5.3	?	-3	2.8	-4.0
COC(=O)c1sccc1NC(=O)CSc1nnnn1-c1ccccc1F	-2	2	?	-8%	-4	2.1	-1.1
CC(C)(C)c1ccc(C2(C)NC(=O)NC2=O)cc1 (stereo not given)	0	-3	-0.6	-2%	-4	6.0	2.1
CCCN(CCC)C(=S)NC(=O)c1ccc(Cl)cc1Cl	25	6	-3.3	7%	2	-0.4	-2.5
C/C(=N/NC(=O)c1cc2ccccc2cc1O)c1ccco1	36	8	-14	2%	13	0.9	-1.3
O=C(Nc1ccc(Cl)cc1N1CCOCC1)C1CCCO1 (stereo not given)	nt	5	nt	2%	-3	6.7	3.3

Assay outcomes deposited in PubChem BioAssay by several laboratories.
